From PubChem BioAssay
NPYLR7 agonist = activates Aedes aegypti NPYLR7 receptor | HEK293T NPYLR7/Galpha15, GCaMP6s calcium fluorescence | activation, % at 10 µM | actives 0.15% (n = 270,000) | AID 1259423; in the data active = activation above about 40%;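 note: 0% = vehicle and 100% = reference agonist at the receptor; some compounds past the cut are filed as inactive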
NPYLR7 agonist max-min = recorded beside NPYLR7 agonist, whose call it bears; activation, %; measured here: Max-Min RFU normalised activation; some inactives read as strong as hits;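 span of the calcium signal over five minutes; 0% = vehicle and 100% = native peptide agonist; compound fluorescence can raise it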
An asterisk follows results filed as active.

Values run as follows: NPYLR7 agonist	NPYLR7 agonist max-min
O=C(CSc1nc(=O)n(CCO)c2c1CCC2)NCc1ccc(Cl)cc1
→ -3.4	-11.9
Cc1ccccc1-c1ccc(=O)n(CC(=O)N2CCCC2)n1
→ 12.3	9.2
Cc1cccc(Cn2c(=O)c(C(=O)NCc3ccccc3)nn(-c3ccccc3)c2=O)c1
→ 12.2	15.7
Cc1ccc2nc(N(CCN(C)C)C(=O)c3ccc(S(C)(=O)=O)cc3)sc2c1
→ -4.2	-5.1
Cc1onc2c(=O)n(C)nc(C(=O)NC(c3ccc(C(C)(C)C)cc3)C(C)C)c12 (configuration not stated)
→ -0.6	8.3
Nc1cccc2c1C(=O)c1cccc(NC(=O)c3ccccc3)c1C2=O
→ -3.9	-6.9
Cc1ccccc1Cn1ccnc1CNCc1ccco1
→ -2.7	5.0
Cc1ccc(-c2cccc3c2OC(CNC(=O)CSc2ncccn2)C3)nc1 (configuration not stated)
→ 4.5	1.1
Cc1ccccc1CCC(=O)N1CCC(n2c(-c3ccccc3)nc3ccc(F)cc32)CC1
→ 11.0	6.9
CCOc1ccccc1NC(=O)CC(=O)NCc1nc2c(C)cccc2o1
→ 2.9	4.3
COc1ccccc1/C=C1N=C(/C=C/c2ccc(Cl)cc2Cl)OC\1=O
→ -11.5	-15.0
COc1ccccc1CCN1CCCC(CN(C)Cc2cnc(SC)nc2)C1 (configuration not stated)
→ -0.6	-6.2
CCS(=O)(=O)Oc1cc(CN(Cc2ccc(F)cc2)C(=O)c2cccs2)ccc1OC
→ -8.4	7.3
CCCOc1ccc(-c2cccc(NS(=O)(=O)c3ccccc3C(F)(F)F)c2)nn1
→ -3.8	-5.1
Cc1cccc(-n2nc(C(=O)NCCc3ccccn3)c(=O)n(Cc3cccc(C(F)(F)F)c3)c2=O)c1
→ 5.0	3.1
CCCC(=O)Nc1sc(C)c(C)c1C(N)=O
→ 0.8	4.8
Cc1nn(C(C)C)c(C)c1NC(=O)NCCS(=O)C(C)(C)C (configuration not stated)
→ 1.9	-1.1
Fc1ccc(Cl)cc1Oc1ccc2c(C3CC3)noc2n1
→ 2.2	0.6
COc1ncccc1-c1cc(C(F)(F)F)cc2[nH]cnc12
→ 3.3	1.3
O=C(NCc1ccc(N2CCOCC2)nc1)c1ccc(NC(=O)C2CC2)cc1
→ -2.8	-0.6
O=C(NNC(=O)c1cc2ccccc2o1)c1ccc(=O)n(Cc2ccc(Cl)cc2)c1
→ -7.6	-13.1
Cn1c(Cc2cccs2)n[nH]c1=S
→ 6.8	3.6
Cc1c(C(=O)NCCCN2CCOCC2)cnn1-c1nccc(-c2cc3ccccc3o2)n1
→ 1.3	-1.3
COc1ccc(Br)c(C(=O)N2CCC(C(N)=O)CC2)c1
→ -3.8	-4.5
CCOC(=O)c1nn(-c2ccccc2C)c(=O)cc1NCc1ccccc1
→ 5.1	2.8
Cc1cc(Cl)cc(NC(=O)CCc2cscn2)c1O
→ 10.8	7.4
Cc1cccc(CNC(=O)Nc2nnc([C@@H]3C[C@H](O)[C@@H](CO)O3)s2)c1
→ 0.6	-1.0
Cc1ccsc1CN(CCN(C)C)C(=O)CN
→ 8.4	4.0
COc1ccc(NC(C)=O)cc1NS(=O)(=O)c1cc2c3c(c1)C(C)C(=O)N3CCC2 (configuration not stated)
→ 8.2	2.8
Cc1ccc(N2C(=O)CC(NCc3cccnc3)C2=O)cc1 (configuration not stated)
→ -13.3	-16.6

Of the compounds above, 2 have an NH in an aromatic ring:
Values run as follows: NPYLR7 agonist	NPYLR7 agonist max-min
COc1ncccc1-c1cc(C(F)(F)F)cc2[nH]cnc12
→ 3.3	1.3
Cn1c(Cc2cccs2)n[nH]c1=S
→ 6.8	3.6

Additional structures:
Values run as follows: NPYLR7 agonist	NPYLR7 agonist max-min
COC(=O)c1csc(S(=O)(=O)Nc2n[nH]c(C)c2C)c1
→ 11.1	8.1
CCOC(=O)CN(C)C(=O)c1cc(-c2ccccc2)cc(Cl)c1O
→ 5.6	5.8
CN(C)C1CCCN(C(=O)C23CC4CC(C2)CC(n2cncn2)(C4)C3)CC1 (configuration not stated)
→ -3.3	-5.6
N#CC1C(=N)Oc2n[nH]c(-c3cccc([N+](=O)[O-])c3)c2C1c1ccc([N+](=O)[O-])cc1 (configuration not stated)
→ -1.8	-6.1
COc1cc(F)ccc1-c1ccc(Cn2ccnc2)cn1
→ -0.5	-1.9
COc1cc(CSc2nnnn2C2CC2)c(OC)cc1Br
→ -0.5	1.6
O=C(OCc1noc(-c2ccccc2Cl)n1)C1(O)CCCC1
→ 2.9	1.7
O=C1C2(CCCC13COC(c1ccco1)OC3)COC(c1ccco1)OC2 (configuration not stated)
→ 2.1	34.1
COc1ccc(-c2cc(C(=O)NC(C)c3ccccc3)c(C)n2-c2ccccc2Cl)cc1 (configuration not stated)
→ 1.1	15.9
O=C(C1CCCO1)N1CCC(NCc2ccc3sccc3c2)CC1 (configuration not stated)
→ -0.1	-2.3
CCOc1ccc(NC(=O)N(CCOC)CC(=O)N(Cc2ccc3c(c2)OCO3)Cc2cccs2)cc1
→ 11.1	6.6
CC1(C)O[C@@H]2C[C@@](OCc3cccc(C(F)(F)F)c3)(C(=O)NCCCn3ccnc3)CC(OCc3cccc(Cl)c3)[C@@H]2O1 (some centres not stated)
→ 1.5	3.2
CCc1nnc(C2Cc3ccccc3CN2CC(O)Cn2cccn2)o1 (configuration not stated)
→ 11.7	7.3
COc1ccc(N=C(Nc2ccc(OC)cc2)SC)cc1
→ -2.3	-3.6
COC(=O)[C@@H](NC(=O)c1cc(COc2ccc(F)cc2Cl)on1)c1ccccc1
→ 13.9	0.6
COc1ccc(CC2CCN(S(=O)(=O)c3ccccc3C)CC2)cc1
→ -0.1	-4.2
Cc1nc2c(cnn2C(C)C)cc1C(=O)n1ccccc1=NC(C)C
→ 0.6	0.1
C=CCNC(=O)NC1CCN(c2ccccc2C(=O)NCCc2ccc(OC)cc2)CC1
→ 22.9	20.3
CCc1cc(CN(C)C(=O)c2cc(C)nc3ccc(C)cc23)on1
→ 0.1	-0.4
CCCCNC(=O)C1CCC(C)N(C(=O)Nc2nnc(C3CC3)s2)C1 (configuration not stated)
→ -3.6	-6.0
Cc1nn(C(=O)COc2ccc(F)cc2)c(C)c1Sc1ccccc1[N+](=O)[O-]
→ 2.8	3.7
CN1C(=O)C2(c3ccccc31)c1c(oc3ccccc3c1=O)C(=O)N2CC1CCCO1 (configuration not stated)
→ 13.2	9.6
Cc1[nH]cnc1CN(C)Cc1cc(-c2cccnc2)no1
→ -2.3	-1.2
O=C(Nc1cccc(Cl)c1)N(Cc1c(-c2ccccc2)noc1N1CCCCC1)CC1CCCO1 (configuration not stated)
→ 6.3	5.3
Cc1nc2nc(C(F)(F)F)nn2c(C)c1CCC(=O)NCC(c1ccccc1)N(C)C (configuration not stated)
→ 2.9	2.9
CCN(CC)C(=O)Oc1ccc2c(ccn2Cc2ccccc2F)c1NC(=O)c1c(F)cccc1C(F)(F)F
→ 6.0	6.4
CN1CCc2c(sc3c2C(=O)NC(c2ccco2)N3)C1 (configuration not stated)
→ 21.8	10.4
O=C(Cc1ccccc1F)N1CCC(n2c(Cc3ccccc3)nc3ccccc32)CC1
→ 2.3	3.0
COc1cccc(C=Nn2c(C)nnc2C)c1O
→ 5.5	2.2
Cc1ccccc1N1CCN(c2cc(Cl)nc(SCC(=O)NC(Cc3ccccc3)c3ccccc3)n2)CC1 (configuration not stated)
→ 5.7	8.3
CC(C)c1cc(C(=O)NCC2CCCO2)nn1-c1nc2ccccc2s1 (configuration not stated)
→ 8.1	-2.4
CS(=O)Cc1ccc(Cl)c(NCC(=O)N2CCOCC2)c1 (configuration not stated)
→ -2.1	0.4
O=C(c1ccc(CSCCc2ccccc2)cc1)N1C2CCC1CC(Oc1ccc(F)cc1F)C2 (configuration not stated)
→ 0.8	7.2
O=C(NCCc1ccccc1)N1CCn2cccc2C1c1ccc(F)c(F)c1 (configuration not stated)
→ 13.0	8.6
Cn1c(CN2CCCC(CNC(=O)c3cccs3)C2)nc2ccccc21 (configuration not stated)
→ 1.1	-1.4
CN1C(=O)Cc2cc(C3=NNC(=Nc4cccc(C(F)(F)F)c4)SC3)ccc21
→ 10.8	8.2
O=C(NCc1cc(-c2ccccc2)n[nH]1)C1CC(=O)N(Cc2ccccn2)C1 (configuration not stated)
→ 22.4	6.4
COCCN(CC(=O)N1CCc2sccc2C1c1ccccc1C)S(=O)(=O)c1cccc(C(F)(F)F)c1 (configuration not stated)
→ -7.5	8.0
CNC(=O)[C@H]1C[C@]2(CCCCN(C)C2=O)N(C(=O)c2ccc(Cl)cc2)[C@H]1c1ccco1
→ 7.3	20.8
O=C(CCC1CCCN(C(=O)CC2=CCCCC2)C1)Nc1ccc(C(F)(F)F)cc1 (configuration not stated)
→ 15.8	16.6
COc1cccc(-c2cn(CC(=O)NCc3cccc(C)c3)nc2N2CCOCC2)c1
→ -7.9	-9.0
O=C(Nc1cccnc1N1CCN(C(=O)C2CCCC2)CC1)c1ccc2c(c1)OCO2
→ -5.3	-0.7
COc1ccccc1/C=C/CN1CCNC(=O)C1CC(=O)N(C)CC1CCOCC1 (configuration not stated)
→ 9.1	10.6
O=C1N(C2Cc3ccccc3C2)C[C@@H]2C[C@@H](c3cccc4c3OCO4)N3CCC[C@@]123
→ 5.7	3.5
CCCn1cc(C2CCN(S(=O)(=O)c3cc(Cl)ccc3OC)CC2)c2ccccc21
→ 2.7	-0.7
c1cncc(COC2CCCN(Cc3cnc(-c4ccco4)nc3)C2)c1 (configuration not stated)
→ 5.3	2.3
CNC(=O)CN(CC(=O)NC)c1ccc(C)c(C)c1
→ 1.2	1.9
CC(C)CNCc1ccc(OS(=O)(=O)c2ccccc2C(=O)OC(C)C)cc1
→ 5.2	-4.4
CS(=O)(=O)c1ccc2nc(NC(=O)Cn3[nH]c(=O)ccc3=O)sc2c1
→ 4.4	-0.4
COc1ccc(N=C2NC(=O)/C(=C\c3ccc(O)cc3)S2)cc1
→ 4.9	1.8
Cc1ccc(-c2csc3ncn(CC4CCCO4)c(=O)c23)s1 (configuration not stated)
→ 8.4	2.7
COc1ccccc1N1CCC(N2CCOC(C(F)(F)F)C2)CC1 (configuration not stated)
→ 8.7	4.3
Cn1cccc1-c1[nH]nc(SCc2ccccc2)c1C#N
→ 11.7	8.9
CC1CC(C)CN(C(=O)COC(=O)Cn2c(C(F)(F)F)nc3ccccc32)C1 (configuration not stated)
→ -2.1	-5.4
CCc1nc2c(OCCOc3ccccc3)cccn2c1N(C)C(=O)COc1ccccc1
→ -2.8	-7.1
CN(C)CCNc1c2c(c(C#N)c3nc4ccccc4n13)CCC2
→ 17.8	12.3
O=C(c1cn(CC2CCCO2)nn1)N1CCC(Cc2ccccc2F)CC1 (configuration not stated)
→ 14.1	0.5
O=C1CC(C(=O)NCc2ccco2)C2(CCCCC2)O1 (configuration not stated)
→ 0.9	-2.0
O=C(O)C1CC2(CCNCC2)CN1C(=O)CCc1ccc(F)cc1 (configuration not stated)
→ -4.9	-13.6
CCOCc1cc(C)[nH]c(=O)c1C#N
→ 0.5	2.5

Next part; the last three above are carried over.
Values run as follows: NPYLR7 agonist	NPYLR7 agonist max-min
O=C1CC(C(=O)NCc2ccco2)C2(CCCCC2)O1 (configuration not stated)
→ 0.9	-2.0
O=C(O)C1CC2(CCNCC2)CN1C(=O)CCc1ccc(F)cc1 (configuration not stated)
→ -4.9	-13.6
CCOCc1cc(C)[nH]c(=O)c1C#N
→ 0.5	2.5
O=C(NCc1ccccc1-n1cncn1)c1onc2ccccc12
→ 13.4	7.2
O=C(Cn1nc(-c2cccs2)c2sc(N3CCCC3)nc2c1=O)Nc1ccccc1F
→ -4.5	-6.9
Cc1ccc(S(=O)(=O)N2CCCC(OCc3ccc(F)c(F)c3)C2)cc1 (configuration not stated)
→ 22.3	22.2
Cc1cccnc1[C@H](C)Nc1nc(-c2cccnc2)nc2c1cnn2C
→ 3.5	-1.5
CS(=O)(=O)c1ccc2nc(NC(=O)C3CCC3)sc2c1
→ 3.8	2.4
CCOC(=O)c1nn(-c2ccccc2C)c(=O)cc1OC(C)C
→ 7.9	4.3
Cn1c(=O)[nH]c(=O)c2c1nc(CN(Cc1ccccc1)Cc1ccccc1)n2CCN1CCOCC1
→ -4.8	-8.1
O=C(CNC(=O)c1ccc2c(c1)OCCO2)N=Nc1c(O)[nH]c2ccccc12
→ -5.2	-11.3
CCCCN1CCCCC1(C)C(=O)NCc1cccs1 (configuration not stated)
→ -9.6	-9.3
Cc1nn(CCNc2cc(N(C)C)ncn2)c(C)c1Cl
→ 14.0	4.8
CC[C@H](C)[C@H](NC1CCN(c2ccc(C(=O)N3CCN(CC)CC3)cc2)CC1)C(=O)OC
→ 1.2	0.6
COCc1cccc(C(=O)NCc2ccc(C)cc2)c1
→ -13.2	-19.2
CN(C)c1cccc(CNC(=O)c2ccc3sc([C@H]4C[C@H](O)[C@@H](CO)O4)nc3c2)c1
→ -0.3	-1.1
O=C(c1cccc(Cl)c1)N1CCN(S(=O)(=O)c2ccc(F)cc2F)CC1
→ -8.3	-6.7
CN1CCN(c2ccc(C(=O)NC3CCOCC3)nn2)Cc2ccccc21
→ -0.6	-1.4
COC(=O)c1cc2ccccc2c(N2CCC(C(N)=O)CC2)n1
→ -1.4	-1.5
O=C1CCC2(CCCO2)CCN1Cc1ccccc1OC(F)(F)F (configuration not stated)
→ 3.6	1.0

One compound at a time, as listed above.
Cn1cccc1-c1[nH]nc(SCc2ccccc2)c1C#N reads NPYLR7 agonist = 11.7; NPYLR7 agonist max-min = 8.9
O=C(OCc1noc(-c2ccccc2Cl)n1)C1(O)CCCC1 reads NPYLR7 agonist = 2.9; NPYLR7 agonist max-min = 1.7

Only part of the results is shown (hit frequency here may not be typical).
